gsp antag – qHTS for Antagonists of gsp, the Etiologic Mutation Responsible for Fibrous Dysplasia/McCune-Albright Syndrome: qHTS; gsp-mutant cells, cAMP HTRF, 30 min; control for the full effect not named in the record; Potency, µM (top dose mostly 76.9 µM), for the others: top-dose activity change, negative = inhibition, actives largely listed as inhibitors; 340,000 tested, 0.4% active; active = falling curve of any shape with a large fitted effect; inconclusive = falling curve, mostly with a smaller effect; inactive = flat or rising curve; cell line not stated here;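 further: intracellular cAMP measured with PDE inhibitor Ro 20-1724 present during compound exposure; potency means the concentration at half of the fitted maximal effect; on the % scale 0 is the no-effect control and ±100 the full control effect; nearly all actives have a fitted effect of over 65% in size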
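Cells, 2000/well, grown 16–24 h in DMEM 10% FBS with 0.5 mg/ml G418, then compounds plus […] (300 uM addition stock), 30 min at 37C. cAMP read by HTRF (cAMP-d2 and anti-cAMP antibody-K in lysis buffer) after 30 min RT.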
Menin MLL FP FL – qHTS Assay for Inhibitors Targeting the Menin-MLL Interaction in MLL Related Leukemias: Competition With Fluorescein Labeled MLL-derived Peptide; Fluorescence polarization, fluorescein-MLL peptide displacement from menin; FP activity change, % at 61.4 µM; 290,000 tested, under 10 active; AID 1766, 2009; inconclusive = falling polarisation curve, or a change in total fluorescence; inactive = total fluorescence flat and polarisation flat or rising; no compound was filed as active; the % refers to the polarisation; negative = inhibition;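 further: % of control where 0% means no effect; inhibitors lower the polarisation; unlabelled MLL peptide was the positive control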
ClpP mod – qHTS Assay for Activators of ClpP | 340,000 tested, 1.9% active | Potency, µM (top dose mostly 57.5 µM), without a hit: at the top dose activity change, negative = active | purified B. subtilis ClpP, FRET peptide cleavage, 20 min | ATP-dependent Clp protease proteolytic subunit (Bacillus subtilis (strain 168)), P80244 | AID 651965, 2013; active = well fitted falling curve with a large enough effect; inconclusive = small, poorly fitted or top-dose-only effect; inactive = no such curve, though single readings can be large or run the other way; further: potency means the concentration at half of the fitted maximal effect; the source files actives as falling curves though it sought activators and does not explain the sign; nearly all actives have a fitted effect of over 65% in size; many hits overshoot -100%
Target sequence (P80244 whole entry, looked up): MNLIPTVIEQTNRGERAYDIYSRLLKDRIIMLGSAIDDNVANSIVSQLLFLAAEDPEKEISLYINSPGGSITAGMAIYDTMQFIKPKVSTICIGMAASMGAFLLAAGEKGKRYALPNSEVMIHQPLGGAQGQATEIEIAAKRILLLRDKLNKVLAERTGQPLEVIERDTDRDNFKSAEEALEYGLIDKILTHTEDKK
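ClpP 10 microg/mL final, pH 8 Tris/KCl buffer with BSA, glycerol, Tween-20; compound pinned in; FRET-FV substrate; RT 20 min; Ex320/Em430; ΔFRET vs ADEP 5.8 microM, DMSO, no enzyme.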
D2 PAM – Beta-Arrestin HTS for Positive Allosteric Modulators of the Human D2 Dopamine Receptor: Potentiators. potentiation, % (concentration not given with the values). 360,000 tested, 0.23% active. DiscoveRx D2 beta-arrestin cells, luminescence, 90 min; 100% = 57 uM dopamine signal. D(2) dopamine receptor (Homo sapiens), P14416. AID 624464, 2012; active = potentiation of 50% or more; inconclusive = 30% to 50%; inactive = 30% or less;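 further: compound concentration not given in the record; tested on top of an EC20 dose of dopamine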
Target sequence (P14416 whole entry, looked up): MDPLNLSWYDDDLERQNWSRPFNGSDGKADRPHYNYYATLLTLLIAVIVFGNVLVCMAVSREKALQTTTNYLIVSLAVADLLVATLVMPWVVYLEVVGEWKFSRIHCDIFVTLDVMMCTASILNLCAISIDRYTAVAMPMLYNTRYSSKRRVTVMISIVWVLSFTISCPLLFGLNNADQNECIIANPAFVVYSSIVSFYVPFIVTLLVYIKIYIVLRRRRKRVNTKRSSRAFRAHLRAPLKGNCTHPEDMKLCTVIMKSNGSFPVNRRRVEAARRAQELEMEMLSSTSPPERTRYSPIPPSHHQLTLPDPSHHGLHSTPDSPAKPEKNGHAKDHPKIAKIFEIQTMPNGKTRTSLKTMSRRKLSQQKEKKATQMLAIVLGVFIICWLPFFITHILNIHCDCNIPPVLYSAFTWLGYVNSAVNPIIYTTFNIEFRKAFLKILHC
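PathHunter D2 cells, attached overnight at 37 deg C, received compound in DMSO plus dopamine at EC20 (50 nM final) for 90 min at 37 deg C. Beta-arrestin recruitment was read as luminescence after 1 h with detection reagent at ambient temperature.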
gsp ag – qHTS for Agonist of gsp, the Etiologic Mutation Responsible for Fibrous Dysplasia/McCune-Albright Syndrome: qHTS; gsp mutant cells, cAMP HTRF, 30 min; control for the full effect not named in the record; Potency, µM (series often up to 76.9 µM), inactives show at the highest dose activation (cAMP increase), usual class: activators; 340,000 tested, 0.13% active; AID 624287, 2012; active = well fitted activation curve with a large enough effect; inconclusive = small, poorly fitted or top-dose-only effect, or another doubt; inactive = no such curve, though single readings can be large or run the other way; cell line not stated here;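 further: phosphodiesterase inhibitor Ro 20-1724 added with compounds to block cAMP breakdown; potency means the concentration at half of the fitted maximal effect; nearly all actives have a fitted effect of over 60% in size; about a fifth of the inactives were tested at one dose only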
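Cells in DMEM/10% FBS with G418 were pretreated with compounds in DMSO plus […] (300 uM stock) for 30 min at 37C. cAMP was measured by HTRF (cAMP-d2 plus anti-cAMP antibody-K) after 30 min at room temperature.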
TRPV1 potentiator – HTS Assay for Compounds that Act as Potentiators of the Vanilloid Receptor 1 | TRPV1-expressing cells, Fluo-8 calcium influx, capsaicin EC20 potentiation; host cell line not named in the record; control for the full effect not named in the record | 320,000 tested, 0.02% active | potentiation, % at 8.33 µM | AID 540277, 2011 | Transient receptor potential cation channel subfamily V member 1 (Homo sapiens), Q8NER1; active means potentiation above 80%; inconclusive means 30% to 80%; inactive means below 30%; further: 0% is about no effect
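Cells expressing TRPV1 were dye-loaded with Fluo-8 and read kinetically: 10 s baseline, 3 min after compound (agonist portion), then 2 min after EC20 capsaicin (allosteric enhancer portion). Calcium-bound dye fluorescence at 480/520 nm.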
Sfp inh – qHTS Assay for Inhibitors of Bacillus subtilis Sfp phosphopantetheinyl transferase (PPTase). 4'-phosphopantetheinyl transferase ffp (Bacillus subtilis), Q9F4F7. Biochemical Sfp PPTase activity, qHTS. Potency, µM, for the others: max response, negative = inhibition, usual class: inhibitors. 310,000 tested, 3.5% active. AID 1490, 2009; active means well fitted inhibition curve with a large enough effect; inconclusive means small, poorly fitted or top-dose-only effect, or another doubt; inactive means no such curve, though single readings can be large or run the other way;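 further: the enzyme is Sfp with the accession as filed and its product quenches rhodamine fluorescence; potency means the concentration at half of the fitted maximal effect; 0% = enzyme reaction without inhibitor and -100% = no enzyme wells; top concentration of the series not given in the record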
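With Hepes-Na pH 7.6 buffer containing 10 mM MgCl2, Sfp (15 nM) modified BHQ-2-YbbR (12.5 uM) using rhodamine-CoA (5 uM). Two reads 30 minutes apart at 525/598 nm yielded each well's rate.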
Starred values were filed as active, the others as inactive; ? = inconclusive; nt = no result given; & = joins results of further samples; [ ] = remark or other dose.

SMILES	gsp antag	Menin MLL FP FL	ClpP mod	D2 PAM	gsp ag	TRPV1 potentiator	Sfp inh
Cc1ccc(-c2ocnc2C(=O)N2CCN(C(=O)c3cccs3)CC2)cc1	-6.6%	0.8	nt	-5.8	3.7%[15.4 µM]	-1.1	1.7%
CC(Nc1nc(-c2cccnc2)nc2ccccc12)c1ccc(F)cc1 (stereo not given)	-20.1%	1.7	nt	-2.6	?	-11.7	-10.5%
O=C1CN(C(=O)c2ccc(Br)o2)C(c2ccc(F)cc2)c2cc(Cl)ccc2N1 (stereo not given)	-16.2%	0.4	0.8%	-28.1	-7.7%	-3.8	-12.5%
CC1CCc2nc(NC(=O)CN3CCN(c4ccc(F)cc4)CC3)sc2C1 (stereo not given)	-10.0%	0.2	0.1%	5.5	-49.2%[inhibitor]	-5.0	-0.4%
COc1ccc(O)c(/C=N/NC(=S)NCCc2ccccc2)c1	-5.9%	0.9	nt	10.2	13.0%[15.4 µM]	12.0	-1.0%
COc1ccc(NC(=O)CN2CCc3ccccc3C2)c([N+](=O)[O-])c1	-10.0%	-5.7	-0.2%	3.3	-1.8%[15.4 µM]	-5.7	-3.9%
CCOC(=O)C1=CC[C@@H](c2cc3ccc(OC)cc3n2C)N(S(=O)(=O)c2ccc(C)cc2)[C@H]1C(=O)OCC	12.3%	nt	75.4%	-4.0	22.1%	-1.7	nt
CCN(CC)CCNC(=O)CS(=O)Cc1nc(-c2ccc(C)cc2)oc1C (stereo not given)	-0.8%	-1.2	-18.1%	-8.6	-7.9%	12.9	10.3%
Cc1cccc(C(=O)Nc2cccc(C(=O)N3CCOCC3)c2)c1	3.3%	-1.2	0.9%	-6.4	5.7%	17.2	17.7%
CCNCC(=O)N1c2ccccc2CCc2ccc(NC(=O)OCC)cc21	8.7%	2.8	-4.1%	-7.9	-24.1%[15.4 µM]	21.2	-2.7%
CCOC(=O)N/N=C(\C)c1cccs1	10.2%	-1.4	nt	-7.6	-2.0%[15.4 µM]	26.8	21.6%
O=C(NN=C1CCC(=NNC(=O)c2cccnc2)CC1)c1cccnc1	13.7%	0.0	0.9%	-6.3	-19.7%	-16.7	-24.7%
CCCCn1c(N)c(N(CCC(C)C)C(=O)C(C)N2C(=O)c3ccccc3C2=O)c(=O)[nH]c1=O (stereo not given)	0.4%	nt	-2.9%	-6.2	15.6%	-0.6	nt
COCCN(C(=O)COC(=O)C1CCCCC1)c1c(N)n(Cc2ccccc2)c(=O)[nH]c1=O	nt	nt	1.7%	-9.5	-9.8%	nt	nt
CCCCP(=O)(CCCC)CCP(=O)(c1ccccc1)c1ccccc1	12.0%	5.7	1.5%	-7.9	-4.9%[15.4 µM]	-4.7	9.6%
COc1ccc(Cl)cc1Nc1nc(Cl)nc(NCCO)n1	nt	nt	-1.9%	-5.4	-15.9%	nt	nt
Cc1[nH]c2ccccc2c1C(=O)COC(=O)Cn1c(C)nc2ccccc21	1.9%	3.2	-1.5%	-1.9	-3.5%[15.4 µM]	-3.9	-6.2%
c1ccc2c(c1)nc(Nc1ccc(N3CCCCC3)cc1)c1nncn12	?	-6.5	1.6%	5.4	-1.2%	23.3	11.0%
Cc1cc2ccccn2c1C(=S)NC(=O)c1ccccc1	-6.8%	10.0	4.9%	-37.5	-38.0%[inhibitor]	2.4	1.4%
COc1ccc(CNC(=O)[C@H](C)NC(=O)N2CCn3c2nc2ccccc23)cc1	-1.6%	nt	nt	-7.0	3.9%	4.5	16.6%
Cc1ccc(-n2c(-c3ccncc3)nnc2-c2ccco2)cc1	-9.8%	-1.2	?	-5.9	-7.4%	1.7	-9.4%
Cc1ccc([N+](=O)[O-])cc1N(CC(=O)Nc1ccc(S(=O)(=O)Nc2cccc(C(F)(F)F)c2)cc1)S(C)(=O)=O	?	0.3	-2.3%	19.2	4.2%	-5.9	14.2%
O=C(N/N=C1/CC(c2ccccc2)Oc2ccccc21)C1CC1 (stereo not given)	-5.3%	3.9	1.7%	-9.6	-7.0%	-0.4	6.4%
N#Cc1c(-c2ccccc2)nc(SCc2ccc(Cl)cc2)[nH]c1=O	-17.0%	-1.6	nt	-8.3	20.8%[15.4 µM]	27.7	8.0%
O=C(Nc1cc(Cl)ccc1-n1cncn1)c1ccc(F)c(S(=O)(=O)N2CCOCC2)c1	1.6%	nt	-1.6%	-17.2	-7.0%	-3.4	nt
CCOC(=O)N1CCN(C(=O)CSC2=NS(=O)(=O)c3cc(F)ccc3N2)CC1	0.3%	nt	nt	4.2	-12.7%[15.4 µM]	?	nt
Cc1cccc(OCC(=O)Nc2ccc3oc(=O)ccc3c2)c1C	-8.3%	6.5	nt	4.0	-7.2%	-18.7	4.7%
Cn1c(=O)cc(N2CCc3ccccc32)[nH]c1=O	-8.7%	1.7	0.5%	-12.1	-17.0%	2.7	11.7%
COc1ccccc1/C=C(\NC(=O)c1ccc(OC)c(OC)c1)C(=O)Nc1cccc([N+](=O)[O-])c1	-10.7%	4.6	nt	-3.3	-3.8%[15.4 µM]	10.5	21.3%
Cc1ccnc(N2C(=O)c3ccccc3C2Nc2cccc(C)c2C)c1 (stereo not given)	6.6%	-1.1	-1.7%	-5.0	-73.2%[inhibitor]	26.8	6.0%
CCc1nc(N2CCOCC2)c(C#N)c2c1COC(C)(C)C2	-6.4%	4.5	?	-3.2	5.5%	4.1	5.5%
O=C(NC12CC3CC(CC(C3)C1)C2)C1CCCN1C(=O)NC1CCCCC1 (stereo not given)	14.7%	1.5	0.2%	-5.7	0.1%	-27.6	12.7%
Cc1ccc(CSc2nc3ccncc3n2CC(=O)Nc2cc(C)cc(C)c2)cc1	-1.2%	0.6	-13.6%	-3.1	18.5%	8.3	-3.0%
Cc1ccc(NC(=O)Cn2c(=O)ccn(Cc3ccccc3)c2=O)cc1S(=O)(=O)N1CCOCC1	2.8%	nt	-0.6%	-0.7	-13.6%	nt	nt
CC(=O)Nc1cccc(NC(=O)CCn2cnc3cc(C)c(C)cc32)c1	1.5%	6.2	0.7%	-16.4	12.5%	-0.9	10.7%
CCN(CCO)Cc1csc2cc(C)ccc12	-2.3%	3.0	0.3%	-9.5	1.0%[15.4 µM]	-3.8	-24.0%
CCCCOC(=O)c1ccc(NC(=O)C(=O)NCc2ccccn2)cc1	-3.3%	1.7	?	-18.2	3.5%[15.4 µM]	-18.3	13.6%
COc1ccc(NC(=O)C2CCC(CNS(=O)(=O)c3cccs3)CC2)cc1 (stereo not given)	-2.4%	5.6	nt	1.4	?	17.3	-21.4%
O=C(/C(C=Nc1cc2c(oc1=O)CCCC2=O)=C(\O)c1ccccc1)c1ccccc1	-22.8%	1.3	-2.7%	-13.1	-20.1%	-0.1	-14.8%
CC(Oc1ccc(Cl)cc1Cl)C(=O)OCn1nnc2ccccc2c1=O (stereo not given)	1.0%	-1.1	-1.8%	-11.9	4.6%	6.2	-1.3%
Cc1cc(N2CCN(C(=O)c3ccco3)CC2)n2nc(C)c(-c3ccc(Cl)cc3)c2n1	nt	-1.6	nt	nt	nt	2.4	15.1%
CCC1Oc2ccccc2C(=O)N(CC(=O)c2ccc3c(c2)OCCO3)C1=O (stereo not given)	-12.7%	nt	-3.5%	4.5	?	-0.8	-1.7%
COc1cccc(OCc2cc(/C=N/Nc3ccc(C(=O)O)cc3)ccc2OC)c1	-18.3%	5.0	-12.8%	1.9	0.6%	6.8	-5.4%
CCC(C)(C)NC(=O)CN(C(=O)c1csnn1)c1cccc2c1CCCC2	-6.3%	1.3	-0.5%	-19.8	?	-0.6	13.2%
N#C/C(=C/c1ccc(-c2cccc([N+](=O)[O-])c2)o1)C(=O)Nc1nc(-c2cccs2)cs1	10.8%	nt	nt	-4.2	11.2%	nt	nt
Cc1ccc(-c2cc(Cc3ccccc3)c(=O)[nH]n2)cc1	9.9%	3.3	0.0%	-4.7	-10.6%[15.4 µM]	-7.0	5.6%
CCCCC(=O)NC1=C(C(=O)OC)SCC1	6.8%	1.0	-2.9%	-11.0	-12.0%	7.1	-1.2%
O=C(COC(=O)c1ccc(O)cc1)Nc1ccccc1-c1ccccc1	-18.9%	8.3	-9.6%	1.1	-0.9%	-4.4	-13.5%
CCc1nnc(NC(=O)c2cccs2)s1	6.1%	1.0	2.3%	1.0	1.0%	-6.7	25.2%
Cc1ccc(C)c(C(=O)CCC(=O)NNC(=O)c2cccs2)c1	10.7%	nt	1.2%	-9.0	9.2%	nt	nt
CCc1ccc(OCc2ccc(C(=O)O)o2)cc1	-8.1%	4.4	nt	1.0	-2.3%	-6.6	11.7%
CNc1nc(-c2ccc3c(c2)CCN3C(=O)c2ccccc2C)cs1	-15.4%	3.3	nt	-0.5	-5.5%	13.3	?
CCOC1=C/C(=C/c2c(N)n3nc(-c4ccccc4)sc3nc2=O)C=CC1=O	-14.8%	?	nt	3.2	?	-2.2	-22.3%
CC(C)CN(C(=O)COC(=O)Cc1n[nH]c(=O)c2ccccc12)C1CCS(=O)(=O)C1 (stereo not given)	10.2%	0.4	0.3%	-6.9	0.3%	0.5	12.3%
CCOC(=O)c1c(C)[nH]c(C)c1C(=O)CSc1nnnn1-c1ccccc1	-16.3%	0.0	-1.4%	7.7	10.8%	-1.1	10.8%
COc1cc2c(cc1OC)-c1cc3ccc(OC)c(OC)c3c[n+]1CC2	?	1.1	0.1%	16.7	nt	19.9	23.1%&22.7%
CCOC(=O)C1CCCN(S(=O)(=O)c2ccc(Cl)nc2)C1 (stereo not given)	3.6%	nt	22.4µM*	28.0	-19.6%	1.7	nt
